NOMO-1 viab = STK33 inhibitor candidate reducing NOMO-1 cell viability. 37,000 tested, 7.5% active. NOMO-1 AML viability, CellTiter-Glo luminescence, 72 h. inhibition, % (no concentration beside the values). AID 2330;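 active = most replicates above 80%; inconclusive = exactly half above 80%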;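 note: wells of about 30 µL received 25 nL stock; 0% = median of vehicle wells and 100% = reference inhibitor level; the first replicate is given; inactives centre near 10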
Active calls of the source: *; u = inconclusive. Not all compounds are listed (hit frequency here may not be typical).

| SMILES | NOMO-1 viab |
| --- | --- |
| C[C@H]1CN([C@@H](C)CO)C(=O)c2cccc(NS(=O)(=O)c3ccc(Cl)cc3)c2O[C@@H]1CN(C)Cc1ccccc1 | 17 |
| COc1cccc(-c2cc(C(F)(F)F)n3nc(C(=O)Nc4c(C#N)cnn4C)cc3n2)c1 | -10 |
| COc1ccc(S(=O)(=O)Nc2ccc3c(c2)C(=O)N([C@H](C)CO)C[C@H](C)[C@@H](CN(C)S(=O)(=O)c2c(C)noc2C)OCCCC[C@@H](C)O3)cc1 | 18 |
| CC1(C)Cc2nc3nc(SCC(=O)Nc4ccccc4)n(-c4ccccc4)c(=O)c3cc2CO1 | -15 |
| C[C@H]1CN([C@@H](C)CO)C(=O)Cc2cc(NC(=O)C3CCCCC3)ccc2O[C@@H]1CN(C)S(=O)(=O)c1cn(C)cn1 | 8 |
| C[C@H]1CN([C@@H](C)CO)C(=O)c2cccc(NC(=O)C3CC3)c2O[C@@H]1CN(C)Cc1ccc(Oc2ccccc2)cc1 | 75 |
| C[C@H](CO)N1C[C@H](C)[C@H](CN(C)Cc2ccc(C(=O)Nc3ccccc3N)cc2)Oc2ccc(NS(=O)(=O)c3ccccc3)cc2C1=O | 109* |
| CC(C)NC(=O)N(C)C[C@H]1Oc2ccc(NS(C)(=O)=O)cc2C(=O)N([C@H](C)CO)C[C@@H]1C | 5 |
| CCN(CC(N)=O)S(=O)(=O)c1ccc(OC)cc1 | 1 |
| C[C@@H]1CN([C@@H](C)CO)C(=O)c2cc(NC(=O)NC3CCCCC3)ccc2O[C@@H]1CN(C)Cc1ccccc1 | 8 |
| CC1CCc2c(sc(NC(=S)NC(=O)c3ccc(-c4ccc(Cl)cc4)o3)c2C(N)=O)C1 (stereo unspecified) | -12 |
| C[C@@H]1CN([C@@H](C)CO)C(=O)c2cccc(NC(=O)c3ccc(-c4nccs4)cc3)c2O[C@@H]1CN(C)CC1CCCCC1 | 41 |
| C[C@@H]1CN([C@@H](C)CO)C(=O)c2cccc(NS(=O)(=O)c3ccc(F)cc3)c2O[C@@H]1CN(C)C | 8 |
| COc1cc(-c2nnn(CC(=O)Nc3c(C)cccc3C)n2)cc(OC)c1OC | 18 |
| C[C@H](CO)N1C[C@H](C)[C@H](CN(C)C(=O)Nc2ccc(F)cc2)Oc2ccc(NS(=O)(=O)c3cccs3)cc2CC1=O | 7 |

Given field by field: entries from further up
CCN(CC(N)=O)S(=O)(=O)c1ccc(OC)cc1
  NOMO-1 viab = 1
C[C@@H]1CN([C@@H](C)CO)C(=O)c2cc(NC(=O)NC3CCCCC3)ccc2O[C@@H]1CN(C)Cc1ccccc1
  NOMO-1 viab = 8
CC1CCc2c(sc(NC(=S)NC(=O)c3ccc(-c4ccc(Cl)cc4)o3)c2C(N)=O)C1 (stereo unspecified)
  NOMO-1 viab = -12
C[C@@H]1CN([C@@H](C)CO)C(=O)c2cccc(NC(=O)c3ccc(-c4nccs4)cc3)c2O[C@@H]1CN(C)CC1CCCCC1
  NOMO-1 viab = 41

Going on with the list:
| SMILES | NOMO-1 viab |
| --- | --- |
| C[C@@H]1CN([C@@H](C)CO)C(=O)c2cccc(NC(=O)Nc3ccc(C(F)(F)F)cc3)c2O[C@H]1CN(C)Cc1ccc(C(=O)Nc2ccccc2N)cc1 | 128* |
| COc1ccccc1NC(=O)CSc1nnc(-c2ccc(Cl)cc2)o1 | 21 |
| COc1ccc(S(=O)(=O)Nc2cccc3c2O[C@@H](CN(C)C(=O)Nc2ccccc2)[C@H](C)CN([C@@H](C)CO)C3=O)cc1 | 21 |
| C[C@@H]1CN([C@@H](C)CO)C(=O)c2cc(NS(=O)(=O)c3cn(C)cn3)ccc2O[C@H]1CN(C)C(=O)Nc1ccc(C(F)(F)F)cc1 | -4 |
| C[C@@H]1CN([C@@H](C)CO)C(=O)Cc2cc(NC(=O)C3CCCCC3)ccc2O[C@@H]1CN(C)S(C)(=O)=O | -6 |
| COc1ccc(OC)c(S(=O)(=O)Nc2cc(OC)c(Cl)cc2OC)c1 | 18 |
| O=C1C(=O)N(CCN2CCOCC2)C(c2ccncc2)C1C(=O)c1cc2ccccc2o1 (stereo unspecified) | 17 |
| C[C@@H]1CN([C@@H](C)CO)C(=O)c2cc(NC(=O)Cc3ccccc3)ccc2O[C@H]1CN(C)Cc1ccc(C(=O)Nc2ccccc2N)cc1 | u |
| C[C@H](CO)N1C[C@H](C)[C@H](CN(C)C(=O)Nc2ccc(F)cc2)Oc2c(NC(=O)c3ccncc3)cccc2C1=O | -11 |
| CCOC(=O)c1ccc(NC(=O)C2C3CCC(C3=C(C)C)C2C(=O)O)cc1 (stereo unspecified) | 14 |
| C=C1C(=O)O[C@H]2[C@H]1[C@@H](OC(=O)/C(C)=C\C)C(OC(C)=O)/C(C(=O)OC)=C\CC[C@@]1(C)O[C@H]21 (stereo partly specified) | 109* |
| C[C@@H]1CN([C@@H](C)CO)C(=O)c2cccc(NC(=O)Nc3ccc4c(c3)OCO4)c2O[C@@H]1CN(C)C(=O)Nc1cccc2ccccc12 | 12 |
| CCn1nc(C)c(NC(=O)CSc2nnc(-c3ccco3)n2C)c1C | 0 |
| COc1ccccc1NC(=O)c1sc2ncn(CC(=O)Nc3ccccc3C)c(=O)c2c1C | -8 |
| Cc1cc(C(=O)Nc2cccc3c2O[C@H](CN(C)C(=O)Nc2ccc(C(F)(F)F)cc2)[C@H](C)CN([C@@H](C)CO)C3=O)n(C)n1 | 5 |

For reference, 3 of the compounds above:
| SMILES | NOMO-1 viab |
| --- | --- |
| C[C@@H]1CN([C@@H](C)CO)C(=O)c2cccc(NC(=O)Nc3ccc(C(F)(F)F)cc3)c2O[C@H]1CN(C)Cc1ccc(C(=O)Nc2ccccc2N)cc1 | 128* |
| COc1ccccc1NC(=O)CSc1nnc(-c2ccc(Cl)cc2)o1 | 21 |
| COc1ccc(S(=O)(=O)Nc2cccc3c2O[C@@H](CN(C)C(=O)Nc2ccccc2)[C@H](C)CN([C@@H](C)CO)C3=O)cc1 | 21 |

Next section.
| SMILES | NOMO-1 viab |
| --- | --- |
| C[C@H](CO)N1C[C@H](C)[C@H](CN(C)Cc2ccccc2)Oc2ccc(NS(=O)(=O)c3cccs3)cc2C1=O | -4 |
| Cc1ccc(S(=O)(=O)Nc2ccc3c(c2)C(=O)N([C@H](C)CO)C[C@@H](C)[C@H](CN(C)C(=O)NC2CCCCC2)O3)cc1 | 34 |
| COc1ccc(CN(C)C[C@H]2Oc3c(NC(=O)Nc4ccc(C(F)(F)F)cc4)cccc3C(=O)N([C@H](C)CO)C[C@@H]2C)cc1 | 94* |
| COc1ccccc1NC(=O)CSc1n[nH]c(-c2ccncc2)n1 | 14 |
| CCC(C)(C)NC(=S)Nc1cccc(OC)c1 | 45 |
| Nc1cc(=O)[nH]c(SCC(=O)Nc2ccc(Br)cc2Cl)n1 | 26 |
| Cc1ccc(Oc2ncccc2NC(=O)C(=S)NCc2ccccc2)c2c1CCC2 | 40 |
| Cc1noc(C)c1NC(=O)Nc1ccc2c(c1)CC(=O)N([C@H](C)CO)C[C@@H](C)[C@H](CN(C)C)O2 | 9 |
| O=C(O)CNS(=O)(=O)c1ccc(-c2ccccc2)cc1 | -5 |
| CSc1c(CC(=O)NCCc2ccccc2)n(C)c2ccccc12 | 9 |
| Brc1ccc(C2=Nn3c(Cn4nnc5ccccc54)nnc3SC2)cc1 | 65 |
| O=C(NCc1cccnc1)c1cc2cc(Cl)ccc2oc1=O | 2 |
| COc1ccc(NC(=O)N(C)C[C@H]2Oc3ccc(NC(=O)C4CC4)cc3CC(=O)N([C@@H](C)CO)C[C@H]2C)cc1 | -3 |
| Cc1ccc(S(=O)(=O)N(C)C[C@@H]2Oc3c(NS(=O)(=O)c4ccc(F)cc4)cccc3C(=O)N([C@@H](C)CO)C[C@@H]2C)cc1 | 40 |
| C[C@H]1CN([C@@H](C)CO)C(=O)Cc2cc(NS(=O)(=O)c3ccccc3)ccc2O[C@@H]1CN(C)S(=O)(=O)c1cn(C)cn1 | 0 |
| CC(=O)N/C(=C\c1ccccc1)C(=O)Nc1cccc(C#N)c1 | -3 |
| Cc1cc(Cl)ccc1OCC(=O)Nc1ccc(Br)cc1C(=O)O | -19 |
| CC1CCN(CC(=O)Nc2sc3c(c2C(=O)Nc2ccccc2)CCCC3)CC1 | 31 |
| C[C@@H]1CCCCO[C@H](CN(C)Cc2ccc(Cl)c(Cl)c2)[C@@H](C)CN([C@H](C)CO)C(=O)c2cc(NC(=O)Nc3ccc4c(c3)OCO4)ccc2O1 | 67 |
| CCOc1ccc(-c2nnc(SCC(=O)c3ccccc3N)n2C)cc1 | 22 |
| C[C@@H]1CN([C@@H](C)CO)C(=O)c2cc(NC(=O)Nc3ccc(C(F)(F)F)cc3)ccc2O[C@H]1CN(C)CC1CCCCC1 | 118* |
| Cc1ccc2oc(-c3cccc(NC(=O)COc4ccccc4C)c3C)nc2c1 | 3 |
| C[C@@H]1CN([C@H](C)CO)C(=O)Cc2cc(NC(=O)C3CC3)ccc2O[C@@H]1CN(C)C(=O)NC1CCCCC1 | 28 |
| COc1ccc(NC(=O)Nc2ccc3c(c2)CC(=O)N([C@@H](C)CO)C[C@@H](C)[C@@H](CN(C)Cc2ccc(Oc4ccccc4)cc2)O3)cc1 | 60 |
| S=c1[nH]n(-c2ccc(Cl)cc2)c(=S)s1 | 18 |
| Cc1ccc(S(=O)(=O)N(C)C[C@@H]2Oc3ccc(NC(=O)Cc4ccccc4)cc3C(=O)N([C@@H](C)CO)C[C@H]2C)cc1 | 17 |
| COC(=O)c1cc(Br)ccc1NC(=O)COc1ccc(Cl)cc1C | 15 |
| Cc1ccc2cccc(S(=O)(=O)n3nc(C)cc3C)c2n1 | 24 |
| COc1ccc(S(=O)(=O)N(C)C[C@@H]2Oc3c(NC(=O)CCCCCC(=O)Nc4ccccc4N)cccc3C(=O)N([C@H](C)CO)C[C@H]2C)cc1 | 100* |
| C[C@@H]1CN([C@@H](C)CO)C(=O)Cc2cc(NS(=O)(=O)c3ccc(F)cc3)ccc2O[C@@H]1CN(C)C(=O)Nc1ccc2c(c1)OCO2 | 19 |
| CNC1CCc2cc(OC)c(OC)c(OC)c2-c2ccc(OC)c(=O)cc21 (stereo unspecified) | 97* |
| O=C(CSC1CC(=O)N(c2ccc(I)cc2)C1=O)Nc1cccc(F)c1 (stereo unspecified) | -19 |
| COc1cccc2cc(C(=O)C3C(=O)C(=O)N(CCN4CCOCC4)C3c3cccc(Br)c3)oc12 (stereo unspecified) | 18 |
| COc1ccc2nc3c(nc2c1)-c1cccc2cccc-3c12 | 15 |
| Nc1cc(N)nc(SCC(=O)c2ccc(Br)cc2)n1 | -7 |
| O=c1c2ccccc2n(Cc2ccc(Cl)cc2)c(=O)n1Cc1ccc(Cl)cc1 | 37 |
| Cc1cc([N+](=O)[O-])nn1CC(=O)Nc1cc(F)ccc1F | 4 |
| C[C@@H]1CN([C@@H](C)CO)C(=O)c2cc(NC(=O)C3CC3)ccc2O[C@H]1CN(C)C(=O)Nc1cccc2ccccc12 | -10 |
| O=S(=O)(c1ccccc1)N1CCN(c2ccccc2)CC1 | 37 |
| N#CC1=C(N)Nc2c(c(=O)oc3ccccc23)C1c1ccc(Br)cc1 (stereo unspecified) | 34 |
| C[C@@H]1CN([C@H](C)CO)C(=O)Cc2cc(N(C)C)ccc2O[C@H]1CN(C)Cc1ccc(C(F)(F)F)cc1 | 22 |
| Cc1noc(C)c1S(=O)(=O)Nc1ccc2c(c1)C(=O)N([C@@H](C)CO)C[C@H](C)[C@@H](CN(C)C(=O)Nc1ccc(F)cc1)O2 | -1 |
| CC(C)NC(=O)N(C)C[C@H]1Oc2ccc(NC(=O)c3ccncc3)cc2CC(=O)N([C@@H](C)CO)C[C@@H]1C | 18 |
| C[C@@H]1CN([C@H](C)CO)C(=O)c2cc(NC(=O)Nc3ccc(F)cc3)ccc2O[C@H]1CN(C)Cc1ccc2c(c1)OCO2 | -6 |
| Cc1noc(C)c1NC(=O)N(C)C[C@H]1Oc2ccc(NC(=O)NC(C)C)cc2C(=O)N([C@H](C)CO)C[C@@H]1C | -17 |
| COc1cc(OC)c(C(=O)c2ccc(O)cc2)c(OC)c1 | -18 |
| COc1ccc(NC(=O)N(C)C[C@H]2Oc3c(NS(=O)(=O)c4ccc(OC)cc4)cccc3C(=O)N([C@H](C)CO)C[C@@H]2C)cc1 | 12 |
| Cc1cc(C(=O)Nc2cccc3c2O[C@@H](CN(C)S(=O)(=O)c2ccccc2)[C@H](C)CN([C@@H](C)CO)C3=O)n(C)n1 | 7 |
| CC(C)NC(=O)N(C)C[C@H]1OCCCC[C@@H](C)Oc2ccc(NC(=O)Nc3ccccc3)cc2C(=O)N([C@H](C)CO)C[C@@H]1C | -8 |
| Cc1ccc2nc(-c3ccccc3)cc(C(=O)NCCCn3ccnc3)c2c1 | 32 |
| CN(C)CCNc1cc(-c2cccnc2)nc2ccccc12 | 51 |
| CC(C)(O)C(O)COc1c2occc2cc2ccc(=O)oc12 (stereo unspecified) | -5 |
| COC(=O)c1ccccc1NC(=O)CNS(=O)(=O)c1cc(Cl)ccc1Cl | -6 |
| C[C@H]1CN([C@@H](C)CO)C(=O)Cc2cc(NC(=O)NC3CCCCC3)ccc2O[C@@H]1CN(C)S(=O)(=O)c1cn(C)cn1 | -23 |
| C[C@H](CO)N1C[C@H](C)[C@H](CN(C)S(C)(=O)=O)Oc2c(NC(=O)c3nc4ccccc4s3)cccc2C1=O | 6 |
| COc1ccc(NC(=O)N(C)C[C@@H]2Oc3ccc(NC(=O)Cn4cnnn4)cc3C(=O)N([C@@H](C)CO)C[C@@H]2C)cc1 | -14 |
| C[C@@H]1CN([C@@H](C)CO)C(=O)c2cccc(NC(=O)CCCCCC(=O)Nc3ccccc3N)c2O[C@H]1CN(C)C(=O)NC1CCCCC1 | 16 |
| Cn1c(/C=C/C=C/N2CCCC2)nc2ccccc2c1=O | 121* |
| C[C@@H]1CN([C@H](C)CO)C(=O)Cc2cc(NC(=O)Nc3ccccc3)ccc2O[C@@H]1CN(C)Cc1ccc(Cl)c(Cl)c1 | 99* |
| C[C@H](CO)N1C[C@H](C)[C@H](CN(C)Cc2ccncc2)Oc2c(NS(=O)(=O)c3cccs3)cccc2C1=O | 3 |
| Cn1c(SCC(=O)c2ccc(F)cc2)nnc1-c1ccc(NC(=O)c2ccccc2Br)cc1 | 23 |

Screens deposited in PubChem BioAssay by Broad Institute.
